Calb biofilm kill: clotrimazole potentiators killing C. albicans biofilm, primary screen, 4-compound mixtures; C. albicans biofilm persisters + clotrimazole, fluorescence viability; primary screen in compound mixtures of four per well; inhibition, % at 7.6 µM; 120,000 compounds, 0.02% hits;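 active = inhibition above 30.3% in the primary screen of four-compound pools, then above 30% when the compound was retested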;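 also: compounds exposed to preformed 24 h biofilms for 48 h; the number belongs to the whole pool; some results filed as inactive read as strong as hits; inactives centre near 12; 0% = biofilm with clotrimazole alone and 100% = kill control; retested singly at about 60 µM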
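System: C. albicans CAF4-2 wild-type biofilms; Medium: RPMI/MOPS medium, pH 7.0; Reagent: Clotrimazole, 50 µg/mL; Times: biofilm formation 24 h, compound exposure 48 h, 37 °C; Detection: 2-h Alamar Blue fluorescence, 535/590 nm excitation/emission; Evaluation: percent inhibition of biofilm viability.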
* marks the source's active call; other numbers are inactive results; & = joins results of further samples.

SMILES	Calb biofilm kill
COC(=O)c1cc2occc2n1Cc1nc(-c2ccccc2F)oc1C	29
CC(=O)Nc1cccc(NC(=O)Nc2cccc(F)c2)c1	0
CCN1CCN(S(=O)(=O)c2cccc(S(=O)(=O)N3CCOCC3)c2)CC1	16
CC(C)c1ccc(CNc2nc3nc4c(c(=O)n3[nH]2)CCC4)cc1	15
CC(=O)N(C)C(c1ccc(N(C)C)cc1)c1nnnn1-c1c(C)cccc1C (stereo unspecified)	9
O=[N+]([O-])c1ccc(COc2cccc(CNc3ccc(F)cc3)c2)cc1	15
COc1ccc(NC(=S)N2CCN(Cc3ccccc3)CC2)c(OC)c1	9
CCCCn1c(SCC(=O)c2ccc3c(c2)NC(=O)CO3)nc2cc(S(N)(=O)=O)ccc21	0
CCOc1cc(CNCCCN2CCOCC2)ccc1OCC(=O)NC(C)(C)C	-7
CC(=O)c1ccc(N2CCN(C(=O)Cc3cccs3)CC2)cc1	-1
N/C(=N\OC(=O)c1cccs1)c1cccc(Br)c1	13
CC(=O)Nc1cccc(C(=O)Nc2cccnc2)c1	9
Cc1nnc(SCC(=O)c2ccc(Cl)cc2)n(N)c1=O	7
CC1CC(C)CN(CC(O)COCCOc2ccc(Br)cc2)C1 (stereo unspecified)	11
CN1CCC(=C2c3ccccc3C(O)c3ccccc32)CC1 (stereo unspecified)	7
C[N+]1(CC(O)COCC2COc3ccccc3O2)CCOCC1 (stereo unspecified)	20
COc1ccc(NC(=S)N(CCCN2CCOCC2)Cc2ccco2)cc1	17
Cc1ccc2c(Cl)cc(Cl)c(OCC(=O)Nc3cc(S(=O)(=O)N(C)C)ccc3C)c2n1	12
COc1ccc(CCn2cc(C#N)c(=O)[nH]c2=O)cc1OC	14
N#CCCn1cc(C(=O)Nc2ccc(C(=O)O)cc2)c(-c2ccc([N+](=O)[O-])cc2)n1	12
COc1ccc(N(C)S(=O)(=O)c2ccc(Cl)c(C(=O)NCCc3ccc(Cl)cc3)c2)cc1	-11
O=C(CN1C(=O)c2cccc3cccc1c23)Nc1ccc(S(=O)(=O)N2CCOCC2)cc1	4
Cc1ccc(SC[C@H](c2ccccc2)N2CCN(CC(C)C)CCC2=O)cc1	9
Cc1cc(/C=C(\C#N)C(=O)NCc2ccco2)c(C)n1-c1ccc(C(=O)O)cc1	17
COC(=O)c1cc(S(=O)(=O)N(C)C2CCCCC2)oc1C	18

Copied from the listing (2 entries):
SMILES	Calb biofilm kill
Cc1cc(/C=C(\C#N)C(=O)NCc2ccco2)c(C)n1-c1ccc(C(=O)O)cc1	17
COC(=O)c1cc(S(=O)(=O)N(C)C2CCCCC2)oc1C	18

More structures follow:
SMILES	Calb biofilm kill
O=C(CCc1c[nH]c2ccccc12)N1CCN(c2ccc(O)cc2)CC1	12
CC(NC(=O)CCc1nnc(-c2ccc(-c3ccccc3)cc2)o1)c1nc2ccccc2[nH]1 (stereo unspecified)	13
O=C(CSc1nc(O)cc(=O)n1C1CCCC1)Nc1cccc(Cl)c1Cl	10
Cc1ccc(C(=O)N/C(=C/c2ccc(-c3cccc([N+](=O)[O-])c3)o2)C(=O)NCCCN(C)C)cc1	8
COc1ccc(NC(=S)N(Cc2cccc(Br)c2)CC2CCC(C(=O)O)CC2)cc1 (stereo unspecified)	11
COc1ccc(-c2nc3ccccc3c(=O)n2NC(=S)N(C)C)cc1	15
CCc1ccc(-c2ccc(C(=O)O)c(C)n2)cc1	16
Cc1cc(C)c(C(=O)CSc2nc(C)cc(C)c2C(N)=O)c(C)c1	19
CC(=O)Nc1ccc(S(=O)(=O)N2CCN(c3cnn(C)c(=O)c3Cl)CC2)cc1	24
O=C1N/C(=N\N=C\c2cccs2)SC1Cc1cccc(Cl)c1Cl (stereo unspecified)	15
COc1ccc(OC)c(CN2CCN(S(=O)(=O)c3ccc(NC(C)=O)cc3)CC2)c1	8
CCC(=O)Nc1cc(C)c(OC)c(C)c1	-7
O=C(COC(=O)c1ccc(F)cc1F)Nc1ccc2[nH]c(=O)[nH]c2c1	17
CCOC(=O)NC(=O)COC(=O)CCCc1nc2ccccc2s1	4
COc1ccc(C(=O)NCc2cc(C)nc3ccccc23)cc1	4
COc1ccc(NCc2nn(CC(=O)c3ccc(Br)cc3)c3[n+]2CCCCC3)cc1	3
Cc1cc(C)cc(Cn2ncc(Cl)c(Cl)c2=O)c1	9
CN1C(=O)SC(Nc2ccccc2)C1=O (stereo unspecified)	10
O=c1cc(N2CCN(Cc3ccccc3)CC2)[nH]c(=O)n1-c1cccc(C(F)(F)F)c1	19
Cc1ccc(-c2nc(N)sc2CC(=O)OCC(=O)N2C(C)CCCC2C)cc1 (stereo unspecified)	19
COc1ccc(S(=O)(=O)N(CC(=O)N/N=C/c2ccccc2C(=O)O)c2ccccc2OC)cc1	25
CC1CC(C)CN(CC(=O)N2CCOCC2)C1 (stereo unspecified)	15
CCOC(=O)c1c(C)n(-c2ccccc2)c2ccc(O)cc12	21
O=C(CCSCc1ccccc1Cl)NC1CCCC1	-10
Cn1c(N)c(N2CCN(c3ccccc3)CC2)c(=O)[nH]c1=O	7

By substructure, those above containing a nitro group on carbon
SMILES	Calb biofilm kill
O=[N+]([O-])c1ccc(COc2cccc(CNc3ccc(F)cc3)c2)cc1	15
N#CCCn1cc(C(=O)Nc2ccc(C(=O)O)cc2)c(-c2ccc([N+](=O)[O-])cc2)n1	12
Cc1ccc(C(=O)N/C(=C/c2ccc(-c3cccc([N+](=O)[O-])c3)o2)C(=O)NCCCN(C)C)cc1	8

Further structures
SMILES	Calb biofilm kill
Cc1c(C(=O)OCc2nc3scc(-c4ccccc4)c3c(=O)[nH]2)cccc1[N+](=O)[O-]	14
Cc1ccc(SCCC(=O)OCn2nnc3ccccc3c2=O)cc1	23
Nc1ccc(S(=O)(=O)O)cn1	14&18&4
COC(=O)C1=C(C(=O)OC)[C@@H]2N(C)c3ccccc3[C@@]23C[C@@H](C(=O)OC)N=C3N1	16
CCCc1ccc(C(=O)NNC(=O)c2ccc(Br)cc2)cc1	7
COc1ccc(-c2noc(-c3ccccc3C(=O)NCC3CCCO3)n2)cc1 (stereo unspecified)	8
O=C(/C=C/c1ccccc1)Nc1ccc(NC(=O)c2cccs2)cc1	13
CN(C)C(=O)c1ccc(-c2nnc(NCc3ccccc3)c3ccccc23)cc1	3
Cc1c(NC(=S)N/N=C\c2ccccc2O)c(=O)n(-c2ccccc2)n1C	14
CC(=O)N1[C@H](C)C=C[C@]1(Cc1ccccc1)C(=O)O	11
Cc1ccc(C(=O)N/N=C/c2ccc(-c3cccc(C(F)(F)F)c3)o2)cn1	15
O=C(c1ccncc1)N1N=C(C2CCCCC2)CC1(O)C(F)(F)F (stereo unspecified)	18
Cc1cc(C)c2c(N)c(C(=O)NCc3ccco3)sc2n1	6
CCOc1cc(Br)c(/C=C2/C(=O)N(C)C(=S)N2CC(=O)OC)cc1OC	11
S=c1nc(C2CCCCC2)[nH]c2ccccc12	4
CCO[C@@H]1OC(C(=O)N2CCN(Cc3ccc4c(c3)OCO4)CC2)=C[C@H](c2ccc3c(c2)OCO3)[C@H]1CCCO	21
Cc1cccc(Cl)c1NNC(=O)Nc1c([N+](=O)[O-])c(C)nn1C	2
Cc1ccc(S(=O)(=O)Nc2ccc3c(c2)nc(CCN2CCCCC2)n3C)cc1	25
Cc1cccc2cc(C3CC(c4cccs4)=NN3C(=O)CCC(=O)O)c(Cl)nc12 (stereo unspecified)	8
Oc1ccc(-c2csc(-c3cccnc3)n2)c(O)c1	8
COc1ccc(Cl)cc1N(C(C)C(=O)O)S(C)(=O)=O (stereo unspecified)	11
NC(=O)C1=C[C@H](c2csc3ccccc23)C[C@H](OCc2ccc(CO)cc2)O1	13
CC(=O)C(=Nc1ccccc1Cl)NNc1ccc(Cl)cc1	17
Cc1nc2scc(-c3ccc(C(C)(C)C)cc3)c2c(=O)n1N	7
CN1CCN(S(=O)(=O)c2ccc(Sc3nnnn3-c3ccccc3)c([N+](=O)[O-])c2)CC1	14

Look-ups from the results shown.
NC(=O)C1=C[C@H](c2csc3ccccc23)C[C@H](OCc2ccc(CO)cc2)O1 @ Calb biofilm kill = 13
CN(C)C(=O)c1ccc(-c2nnc(NCc3ccccc3)c3ccccc23)cc1 @ Calb biofilm kill = 3

Following part
SMILES	Calb biofilm kill
Cc1nc(N(C)C)ncc1C(=O)O	14
FC(F)Sc1ccc(NC(=S)NC2CCCC2)cc1	6
Cc1cc(N2CCN(c3nc(-c4ccccc4)cs3)CC2)c2ccccc2n1	19
Cc1cccn2cc(-c3ccc(S(=O)(=O)N4CCCCC4)cc3)nc12	9
CN(Cc1cnn(C)c1)Cc1nc(Cc2ccccc2Cl)no1	19
COC(=O)c1c(C)[nH]c(C(=O)/C=C/c2ccccc2F)c1C	6
CN1CCN(NS(=O)(=O)c2cccs2)CC1	-2
CCn1nc(C)c(CNC(=O)c2cc(COc3ccc(F)cc3Cl)on2)c1C	22
Cn1cnc(S(=O)(=O)Nc2cc(C(F)(F)F)ccc2N2CCOCC2)c1	16
CCOc1ccc(C2C(C#N)=C(N)Oc3cc(C)oc(=O)c32)cc1 (stereo unspecified)	7
CNC(=O)N(O)C1N(NC(=O)Nc2cccc3ccccc23)C(=S)SC1(C)C (stereo unspecified)	14
C/C(CC(=O)Nc1ccccc1)=N\NC(=O)COc1ccc(C)cc1Br	15
CCc1ccccc1NC(=O)c1ccccc1Sc1ccc([N+](=O)[O-])cc1Cl	5
CCOC(=O)Cc1csc(NS(=O)(=O)c2ccc(OC)cc2)n1	8
CCn1c(=O)c(-c2cc(=O)[nH][nH]2)c(O)c2ccccc21	3
Nc1nc(SCCO)[nH]c(=O)c1NC(=O)c1ccccc1F	15
CC(C)(C)c1n[nH]c(=S)n(/N=C/c2cccs2)c1=O	12
Cc1ccc(S(=O)(=O)NCC(=O)OCC(=O)NC(=O)NC2CCCC2)cc1	-13
COC(=O)c1cc(NC(=O)CSc2nnc(N)s2)ccc1Cl	14
COc1cc(C(=O)NC(C(=O)Nc2cccc(C(C)=O)c2)C(C)C)cc(OC)c1OC (stereo unspecified)	-3
CC(=O)c1ccc(NC(=O)CC23CC4CC(C2)CC(n2nnc(C)n2)(C4)C3)cc1	6
CCC(=O)Oc1ccc(C(=O)Nc2cccc(C(=O)NC(C)(C)C)c2)cc1	14
COc1ccc(CCNC(=O)/C(=C/c2cccnc2)NC(=O)c2ccccc2)cc1OC	12
Cc1cccc(-c2nnc(SCC(=O)Nc3ncccn3)n2C)c1	11
CNC(=O)NNC(=O)c1nc(-c2ccccc2)c(C)o1	13

Grouped by structure: those above containing a furan ring, fused or not.
SMILES	Calb biofilm kill
COC(=O)c1cc2occc2n1Cc1nc(-c2ccccc2F)oc1C	29
COc1ccc(NC(=S)N(CCCN2CCOCC2)Cc2ccco2)cc1	17
Cc1cc(/C=C(\C#N)C(=O)NCc2ccco2)c(C)n1-c1ccc(C(=O)O)cc1	17
COC(=O)c1cc(S(=O)(=O)N(C)C2CCCCC2)oc1C	18
Cc1ccc(C(=O)N/C(=C/c2ccc(-c3cccc([N+](=O)[O-])c3)o2)C(=O)NCCCN(C)C)cc1	8
Cc1ccc(C(=O)N/N=C/c2ccc(-c3cccc(C(F)(F)F)c3)o2)cn1	15
Cc1cc(C)c2c(N)c(C(=O)NCc3ccco3)sc2n1	6

(cont.)
SMILES	Calb biofilm kill
CS(=O)(=O)Nc1cccc(C2=NN(S(=O)(=O)c3ccccc3)C(c3ccco3)C2)c1 (stereo unspecified)	22
Cc1[nH]c2ccccc2c1/C=C/C(=O)c1ccncc1	-4
Nc1ccccc1-c1n[nH]c(=S)s1	4
Cc1cc(C)c(C)c(OCCCOc2cccc3cccnc23)c1	25
N#Cc1c(-c2ccccc2)nc(SCC(=O)N(c2ccccc2)c2ccccc2)[nH]c1=O	9
CC1(C)CC(NC(=O)c2ccccn2)CC(C)(C)N1O	13
O=S(=O)(c1ccc(NC(=S)N/N=C/c2ccc(Oc3ccccc3)cc2)cc1)N1CCOCC1	28
Cc1ccc(C(=O)/C=C\C(=O)c2ccc(C)cc2)cc1	11
O=C(OCC(=O)c1c[nH]c2ccccc12)c1cc(Br)ccc1O	16
COc1ccc(C(=O)N/N=C/c2ccc(OC(=O)c3cccs3)cc2)cc1	10
Cc1ccccc1NC(=O)OCCN1CCN(Cc2ccccc2)CCC1=O	15
CCOCCCNC(=O)c1ccc(Cn2c(=O)[nH]c3ccsc3c2=O)cc1	9
COCCNC(=O)CN(C(=O)CCC(=O)Nc1ccccn1)c1ccccc1F	6
COc1cccc(/C=C/C2=CC(C)(C)NC(=S)N2)c1	26
O=C(c1ccc(Cl)cc1)N1CCN(c2ccnc3cc(Cl)ccc23)CC1	9
COc1ccc(-c2nnnn2C(C)C)cc1	29
CC(CCc1ccccc1)NC(=O)COC(=O)CC1CC2CCC1C2 (stereo unspecified)	12
Cn1cc(C(=O)NCc2cccnc2)c(=O)c2cc(S(=O)(=O)N3CCCCCC3)ccc21	5
CCOC(=O)N1CCC(N(CCN(C)C)C(=S)Nc2ccc(OCC)cc2)CC1	14
CCOc1ccc(/C=C/C(=O)Nc2ccc3[nH]c(=O)[nH]c3c2)cc1	21
Cn1c(SCC(=O)NCC2CCCO2)nnc1-c1cccc(NC(=O)c2ccccc2F)c1 (stereo unspecified)	7
O=C(CCN1C(=O)c2cccc3cccc(c23)C1=O)NCc1cccnc1	7
CCCN1C(=O)c2ccccc2NC1c1ccc(C)cc1 (stereo unspecified)	0
CCOc1ccc(NC(=O)CC)cc1	0
COC(=O)c1sccc1NC(=O)Nc1cccc(C(C)=O)c1	2
Cc1cc(=O)nc2c3ccccc3n(C(C)C(=O)NCCC(C)C)n12 (stereo unspecified)	24
CC(=O)Nc1cccc(OCC(=O)/C=C2\N(C)c3ccccc3C2(C)C)c1	11
COc1ccc2c(c1)sc(=N)n2CC(=O)Nc1cc(C)cc(C)c1	7
CN1CCN(C(=O)CCN2C(=O)S/C(=C/c3ccc(Cl)cc3)C2=O)CC1	9

Compound activity as filed in PubChem.

A portion of the library. The share of hits here may be higher or lower than overall.
